From PubChem
gsp ag: gsp mutant agonism; gsp mutant cells, cAMP HTRF, 30 min; control for the full effect not named in the record; actives 0.13% (n = 340,000); Potency, µM (titrated, usually from 76.9 µM), for inactives: top-dose activation (cAMP increase), hits mostly activators; active = well fitted activation curve with a large enough effect; inconclusive = small, poorly fitted or top-dose-only effect, or another doubt; inactive = no such curve, though single readings can be large or run the other way; cell line not stated here;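 also: phosphodiesterase inhibitor Ro 20-1724 added with compounds to block cAMP breakdown; potency is read from the fitted curve at half-maximal effect; nearly all actives have a fitted effect of over 60% in size; about a fifth of the inactives were tested at one dose only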
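Cells stably selected in G418 were plated at 2000/well, grown 16-24 hr, then given compounds in DMSO with the PDE inhibitor […] (300 uM solution added) for 30 min at 37C; cAMP was read by HTRF.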
TRPML1 inh: inhibitors of human TRPML1 channel; Q9GZU1; TRPML1-inducible cells, Ca2+ dye fluorescence, FDSS; hits give low values; inhibition of EC80 agonist-evoked calcium signal; activity change, negative = inhibition, % (test concentration not listed); actives 0.02% (n = 390,000); in the data active means activity change below about -50%; inconclusive means about -30% to -50%; inactive means above about -30%;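 also: stimulus is agonist 54-4 at its EC80 concentration; % is scaled to controls: 0 for no effect and ±100 for the full control effect; compound concentration not given in the record; the text of the record puts the active cut at -80%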
Target sequence (Q9GZU1 whole entry, looked up): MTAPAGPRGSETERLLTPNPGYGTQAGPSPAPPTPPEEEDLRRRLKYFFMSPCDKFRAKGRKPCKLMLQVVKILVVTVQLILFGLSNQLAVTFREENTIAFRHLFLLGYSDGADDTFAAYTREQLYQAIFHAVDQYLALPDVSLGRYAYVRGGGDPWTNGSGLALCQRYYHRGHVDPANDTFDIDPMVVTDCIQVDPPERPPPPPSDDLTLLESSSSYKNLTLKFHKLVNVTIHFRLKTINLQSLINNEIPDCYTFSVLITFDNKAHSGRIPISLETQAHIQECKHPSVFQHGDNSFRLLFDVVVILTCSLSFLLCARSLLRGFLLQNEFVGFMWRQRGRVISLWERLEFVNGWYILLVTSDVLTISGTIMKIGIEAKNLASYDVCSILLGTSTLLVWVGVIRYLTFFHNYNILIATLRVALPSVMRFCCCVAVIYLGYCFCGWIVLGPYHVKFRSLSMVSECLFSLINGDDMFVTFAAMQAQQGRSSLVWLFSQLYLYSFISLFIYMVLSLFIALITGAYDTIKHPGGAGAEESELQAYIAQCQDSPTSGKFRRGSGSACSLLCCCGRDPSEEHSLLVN
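TRPML1-DL cells, Tet-induced overnight (~16 h, 37 °C) at 1,500 cells/well, were loaded with Ca8 no-wash dye plus quencher for 45-90 min at room temperature. Compounds were pinned during FDSS kinetic reading; agonist 54-4 at EC80 (4 uM final) then added.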
gsp antagonist: antagonists of gsp mutant (McCune-Albright syndrome) | gsp-mutant cells, cAMP HTRF, 30 min; control for the full effect not named in the record | Potency, µM (titrated, usually from 76.9 µM), for the others: top-dose activity change, negative = inhibition, usual class: inhibitors | actives 0.4% (n = 340,000); active = falling curve of any shape with a large fitted effect; inconclusive = falling curve, mostly with a smaller effect; inactive = flat or rising curve; cell line not stated here;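 also: intracellular cAMP measured with PDE inhibitor Ro 20-1724 present during compound exposure; potency is read from the fitted curve at half-maximal effect; % is scaled to controls: 0 for no effect and ±100 for the full control effect; nearly all actives have a fitted effect of over 65% in size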
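Measurement of cellular cAMP by homogeneous time-resolved fluorescence following a 30 min compound exposure at 37C. The PDE inhibitor […] was present throughout; the assay buffer was DPBS with 0.05% BSA and 0.005% Tween 20.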
Menin-MLL FL inh: inhibitors of human menin-MLL interaction, wild-type MLL peptide | 290,000 tested, under 10 active | Fluorescence polarization, fluorescein-MLL peptide displacement from menin | FP activity change, % at 61.4 µM | AID 1766; inconclusive = falling polarisation curve, or a change in total fluorescence; inactive = total fluorescence flat and polarisation flat or rising; no compound was filed as active; the % refers to the polarisation; negative = inhibition;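 also: % of control where 0% means no effect; inhibitors lower the polarisation; unlabelled MLL peptide was the positive control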
TRPML1 agonist: activates the human TRPML1 channel. Q9GZU1. TRPML1-expressing cells, Ca2+ dye fluorescence, FDSS; host cell line not named in the record; reference of the full effect not given here. activation, % (test concentration not listed). actives 0.12% (n = 410,000). AID 624414; in the data active = activation above about 50%; inconclusive = about 30% to 50%; inactive = below about 30%; also: 0% is about no effect; the text of the record puts the active cut at 80%
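Tetracycline-induced TRPML1-DL cells are seeded and incubated overnight before loading with a no-wash Ca2+ dye and quencher. Agonist activity is taken from the 110 s fluorescence read following compound pin-transfer on an FDSS, before EC80 54-4 challenge.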
ClpP mod: qHTS Assay for Activators of ClpP | actives 1.9% (n = 340,000) | purified B. subtilis ClpP, FRET peptide cleavage, 20 min | ATP-dependent Clp protease proteolytic subunit (Bacillus subtilis (strain 168)), P80244 | Potency, µM (series often up to 57.5 µM), inactives show top-dose activity change, negative = active; active = well fitted falling curve with a large enough effect; inconclusive = small, poorly fitted or top-dose-only effect; inactive = no such curve, though single readings can be large or run the other way; also: potency is read from the fitted curve at half-maximal effect; the source files actives as falling curves though it sought activators and does not explain the sign; nearly all actives have a fitted effect of over 65% in size; many hits overshoot -100%
Target sequence (P80244 whole entry, looked up): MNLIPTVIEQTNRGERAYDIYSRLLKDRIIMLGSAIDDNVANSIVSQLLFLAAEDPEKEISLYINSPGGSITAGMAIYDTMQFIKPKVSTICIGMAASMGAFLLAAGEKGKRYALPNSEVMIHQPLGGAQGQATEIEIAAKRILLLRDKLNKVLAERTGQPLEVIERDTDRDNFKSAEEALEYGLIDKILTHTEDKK
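ClpP 10 microg/mL final, pH 8 Tris/KCl buffer with BSA, glycerol, Tween-20; compound pinned in; FRET-FV substrate; RT 20 min; Ex320/Em430; ΔFRET vs ADEP 5.8 microM, DMSO, no enzyme.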
* hit, by the source's call; ? = inconclusive; nt = no result given; [ ] = another dose, or the depositor's remark. Not a hit list; any-hit rate near 2.1%.

Values run as follows: gsp ag | TRPML1 inh | gsp antagonist | Menin-MLL FL inh | TRPML1 agonist | ClpP mod
COc1ccc(N2CCN(C(=S)Nc3ccc(C)cc3)CC2)cc1
    -8.0% | -4.8 | 2.0% | 1.9 | 0.2 | -0.9%
CCSc1nnc(NC(=O)CN2C(=O)N(C)C3(CCCCC3)C2=O)s1
    -45.5%[inhibitor] | 12.4 | -12.0% | nt | 0.3 | -0.5%
O=Cc1ccccc1OCc1ccc2c(c1)OCO2
    -4.9% | -8.5 | 24.0% | -0.5 | 0.1 | -0.7%
Cc1cc2ccccc2n2c(SCC(=O)NCC3CCCO3)nnc12 (configuration not stated)
    ? | 10.6 | 14.0% | 2.8 | -0.2 | -13.9%
FC(F)(F)c1ccc(C2[C@H]3CN(Cc4ccc(-c5ccccc5)cc4)[C@H](c4ccccc4)C34CC2(c2ccccc2)C4)cc1 (some centres not stated)
    nt | -1.0 | 10.7% | ? | 2.2 | -0.5%
O=C(Cn1cccn1)N1CCCC(Nc2ccc(F)c(F)c2)C1 (configuration not stated)
    -5.2% | 15.0 | -1.5% | nt | 0.2 | 1.7%
COc1ccc(OCC(O)CN(C)C(=O)/C=C/c2cccc([N+](=O)[O-])c2)cc1 (configuration not stated)
    -1.2%[15.4 µM] | -2.6 | -7.6% | 0.5 | -0.5 | nt
Cc1[nH]c2ccccc2c1C(=O)COC(=O)C1CC(=O)N(Cc2ccccc2)C1 (configuration not stated)
    -39.4%[inhibitor] | -16.2 | -10.7% | 0.6 | 0.6 | -1.7%
CCOC(=O)C1CCCN(C(=O)c2ccc3oc(Cc4ccccc4)nc3c2)C1 (configuration not stated)
    1.3% | 23.3 | -0.4% | nt | 0.7 | 1.2%
COc1ccc(OC(C)C(=O)NCc2nc(-c3cccc(C)c3)no2)cc1 (configuration not stated)
    nt | 19.6 | nt | nt | 0.8 | 0.4%
CCOCCCn1c(=S)[nH]c2cc(C(=O)NCCc3ccccc3)ccc2c1=O
    ? | -6.8 | -4.5% | 5.9 | -0.5 | -2.2%
CC(NC(=O)CCNC(=O)c1ccccc1Cl)C1CC2CCC1C2 (configuration not stated)
    46.1% | 26.8 | 10.0% | 6.8 | 1.3 | 0.4%
CCCCN1C(=O)C(CC(=O)NCc2cccs2)CC(C(=O)N(C)C)=C1C (configuration not stated)
    -64.2%[inhibitor] | -53.4* | nt | nt | 0.2 | 1.7%
COCCn1c(=S)[nH]c2cc(C(=O)N3CCN(C4CCCCC4)CC3)ccc2c1=O
    1.0% | 2.9 | nt | nt | -0.6 | 1.4%
O=S(=O)(c1ccccc1)c1cnn2c(C(F)(F)F)cc(-c3ccccc3)nc12
    8.8% | 12.2 | 1.3% | 5.8 | 0.0 | ?
CNS(=O)(=O)c1cccc(C(=O)OCC(=O)c2c(N)n(C)c(=O)n(C)c2=O)c1
    -8.1%[15.4 µM] | 13.9 | 0.6% | -1.1 | 0.5 | nt
Cc1ccc(-c2cc(C(=O)NCc3ccc4c(c3)OCO4)no2)cc1
    -4.2% | 27.1 | 1.4% | 0.5 | 1.6 | -0.2%
COc1ccc(C2=C(c3ccc([N+](=O)[O-])cc3)C(=O)OC2)cc1
    -4.3%[15.4 µM] | -16.2 | ? | -1.5 | -0.7 | nt
CCOC(=O)c1ccccc1NC(=O)N1CC(C)Oc2ccc(C)cc21 (configuration not stated)
    nt | -5.0 | nt | nt | 2.0 | -12.9%
CCNC(=S)Nc1ccc(Cl)c([N+](=O)[O-])c1
    -11.0%[15.4 µM] | 21.2 | 0.3% | -2.1 | -0.9 | nt
Cc1nc(NC(=O)CSc2nc3ccccc3s2)sc1C(=O)N(C)C
    7.4% | 0.1 | -4.5% | -3.1 | 1.4 | -3.7%
CCC(CC)c1nnc(NC(=O)c2c(-c3ccccc3)noc2C)s1
    29.0% | -15.0 | -2.4% | 2.4 | -0.8 | 2.5%
O=C(/C=C/Nc1ccc(S(=O)(=O)Nc2ncccn2)cc1)c1cccs1
    7.8%[15.4 µM] | 1.2 | -3.5% | 0.7 | 1.0 | nt
CCN(CC)S(=O)(=O)c1ccc2[nH]c(=O)cc(C(=O)Nc3ccc(C)cc3)c2c1
    -22.9%[15.4 µM] | -1.6 | -6.7% | -0.6 | -0.4 | -1.3%
Cc1ccc(C(=O)Cn2nnc3c(sc4nc5c(c(-c6ccccc6)c43)CCC5)c2=O)cc1
    6.4% | -1.0 | -11.9% | 5.9 | 0.7 | -2.3%
O=C(CN1c2cccc3cccc(c23)S1(=O)=O)N1CCOCC1
    7.3% | 6.1 | 3.8% | -0.1 | 0.2 | ?
O=C(COC(=O)/C=C/c1ccc(C(F)(F)F)cc1)NCC1CCCCC1
    2.8% | 36.4 | -1.3% | nt | 0.0 | 0.8%
O=C(Nc1ccc(Cl)cc1)C1Cc2c(-c3ccccc3)ccnc2O1 (configuration not stated)
    nt | 18.5 | nt | nt | -0.5 | -1.8%
CCOC(=O)CN(C(=O)COc1nc(C)cc(C)c1C#N)c1ccc(F)cc1
    ? | -14.9 | -3.8% | 4.8 | -0.7 | nt
Cc1ccc(C(=O)N2CCN(c3ccc(F)cc3)CC2)cc1S(=O)(=O)N1CCCCC1
    -54.1%[inhibitor] | 2.1 | -9.8% | nt | -0.1 | -0.3%
CN(C)/C=C/C(=O)c1ccccc1
    2.5% | 11.3 | 10.2% | 7.7 | -0.3 | 0.4%
COc1ccc(OC)c(NC(=O)c2c(NC(=O)CCC(=O)O)sc3c2CCCCC3)c1
    0.7% | 9.4 | ? | 2.7 | 0.0 | 0.3%
CCCCCCCC(=O)Nc1ccc(S(=O)(=O)Nc2nccs2)cc1
    -11.6% | -14.8 | -6.5% | 10.0 | 1.1 | -14.3%
CCCCN(C(=O)CSCc1c(C)noc1C)c1c(N)n(CCCC)c(=O)[nH]c1=O
    -17.8% | -7.8 | 10.9% | nt | -0.6 | -1.6%
CCn1cc(C2=NOC(C(=O)Nc3cc(C)nn3-c3ccccc3)C2)c(C)n1 (configuration not stated)
    -8.7% | 18.1 | -3.1% | -1.2 | -0.2 | 0.3%
O=c1sc2ccccc2n1COc1ccc(Cl)cc1
    -9.3% | 12.6 | ? | 3.7 | 6.1 | 0.3%
Cc1ccc2cccc(OCC(=O)Nc3ccc(N4CCOCC4)cc3)c2n1
    -55.5%[inhibitor] | -10.0 | -14.1% | 2.1 | -0.3 | 1.3%
CC(=O)c1cc(F)c(N2CCN(C(=O)C(C)(C)C)CC2)cc1C
    -5.4% | 12.1 | ? | -20.5 | -0.9 | -0.2%
Cc1c(C)n(-c2ccc(Cl)cc2)c2ncnc(N)c12
    13.9% | 7.5 | -1.9% | -10.3 | 2.3 | nt
COc1ccc(C2c3[nH]c4ccccc4c3C[C@H]3C(=O)N(CCCO)CC(=O)N23)c(OC)c1 (some centres not stated)
    1.0% | -20.3 | 1.0% | 7.2 | 0.0 | 0.0%
CN(C)c1nnnn1-c1ccccc1Oc1ncc(C(F)(F)F)cc1Cl
    -24.5% | 33.2 | 5.7% | -1.8 | 2.1 | nt
CSc1ccccc1OCc1cc(C(=O)N(C)Cc2ccncn2)no1
    -21.9% | -1.1 | 2.5% | nt | 0.0 | 1.4%
CCOC(=O)N1CCN(C(=O)CSCc2nc(-c3ccccc3C)oc2C)CC1
    -1.9% | 12.9 | ? | -0.2 | 0.6 | -15.6%
CCO[C@H]1OC(C(=O)O)=C[C@@H](c2coc3ccccc3c2=O)[C@@H]1CCCO
    nt | 5.9 | 7.1% | nt | -0.1 | 0.4%
COC(=O)[C@H](CCSC)NC(=O)Nc1cc(C)ccc1C
    1.8% | 15.7 | 8.7% | -0.3 | 4.2 | 0.3%
CCCCNC(=O)CSc1nc(COc2ccccc2)nc2ccccc12
    6.3%[15.4 µM] | 30.1 | -2.1% | 7.6 | 4.8 | nt
COC(=O)Cc1c(O)ccn(C2CC2)c1=O
    -10.2%[15.4 µM] | -4.3 | 10.9% | 0.3 | 0.0 | 0.0%
Cn1c(=O)c2c(nc(CN3CCN(C(c4ccccc4)c4ccccc4)CC3)n2CC(N)=O)n(C)c1=O
    ? | -3.2 | 0.9% | -1.1 | -0.5 | -0.3%
COc1ccccc1-n1cc(-c2ccccc2)[nH]c1=S
    0.5% | 3.0 | 1.9% | 1.8 | 1.4 | ?
COc1ccc(NC(=O)CSc2nnc(C3CCCCC3)o2)c(OC)c1
    1.5% | -10.4 | -1.8% | 4.2 | 0.8 | 1.7%
CCn1c2ccccc2c2cc(CN3CCN(Cc4ccc(Cl)cc4)CC3)ccc21
    nt | 7.7 | nt | nt | 2.9 | ?
O=c1[nH]c(/C(=N\O)c2ccccc2)no1
    -3.4% | 1.7 | -26.0% | -0.9 | -0.9 | 0.5%
CCN(CC)S(=O)(=O)c1cccc(-c2nnc(SC(C)C#N)n2Cc2ccccc2)c1 (configuration not stated)
    -40.4%[inhibitor] | 9.8 | -24.9% | 3.5 | -0.2 | 0.2%
CONc1nc2nonc2nc1NOC
    -98.3%[inhibitor] | -0.6 | -3.8% | 7.0 | 0.5 | -3.3%
COc1ccc(NC(=O)C2CCCN(S(C)(=O)=O)C2)cc1OC (configuration not stated)
    -25.1% | -5.3 | 6.5% | 0.8 | -1.0 | -1.6%
CCC1CCCCN1C1Sc2ccc(C(=O)OC)cc2NC1=O (configuration not stated)
    -43.1%[inhibitor] | 7.1 | 2.3% | 6.9 | 0.3 | -0.4%
COC(=O)C(Nc1nccs1)(OC)C(F)(F)F (configuration not stated)
    12.4% | -7.3 | 5.0% | ? | 0.4 | 0.1%
CSc1oc(-c2ccco2)nc1S(=O)(=O)c1ccc(F)cc1
    -2.8% | -13.4 | -1.3% | ? | 0.4 | -3.3%
O=C(CSc1nc2c(oc3ccccc32)c(=O)n1Cc1ccco1)Nc1ccccc1Cl
    nt | -8.8 | nt | nt | -0.5 | -1.5%
CCOC(=O)[C@H]1[C@H]2COc3ccc(OC)cc3[C@@H]2N2C(=O)CN(CCc3c[nH]c4ccccc34)C(=O)[C@@]12C
    0.8% | 6.8 | -21.6% | nt | -0.1 | 1.3%

Continued.
Values run as follows: gsp ag | TRPML1 inh | gsp antagonist | Menin-MLL FL inh | TRPML1 agonist | ClpP mod
COc1ccc(-c2cc(C(=O)Nc3ccc(O)cc3)c3ccccc3n2)cc1OC
    -21.5% | nt | -40.2% | -0.1 | nt | -1.4%
CCc1ccc(CN(C(=O)c2nc(SC)ncc2Cl)C2CCS(=O)(=O)C2)cc1 (configuration not stated)
    nt | 21.2 | nt | nt | -0.3 | -2.4%
CCOC(=O)C1CCCN(CCC(=O)Nc2cccc(Cl)c2C)C1 (configuration not stated)
    ? | -1.3 | 7.4% | 4.1 | 1.2 | 1.3%
CCOc1ccc(NC(=O)Nc2ccccc2C(N)=O)cc1
    24.2% | 32.8 | 5.9% | -0.9 | 0.5 | nt
